GAA glycogen mod – inhibitors or activators of human alpha-glucosidase glycogen cleavage; P10253; recombinant GAA, glycogen substrate, Amplex Red glucose oxidase fluorescence; AID 2100; Potency, µM (doses to about 76.4 µM), inactives show top-dose activity change, negative = inhibition, actives largely listed as inhibitors; actives 0.38% (n = 300,000);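 note: 0% = full enzyme reaction and -100% = no-enzyme basal signal; the screen sought inhibitors and activators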
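Recombinant human alpha-glucosidase (4 nM final) hydrolysed bovine liver glycogen (30 ug) for 40 min at 37 C in pH 5.0 citrate/phosphate with 0.01% Tween-20. Released glucose detected by glucose oxidase/Amplex Red, Ex 573/Em 610 nm. Compounds up to 77 uM; AC50 from Hill fits.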
TRb-SRC2 inh – disrupts binding of human TR beta to SRC2; P10828; TRbeta-SRC2 peptide binding, fluorescence polarization; receptor liganded with 1 µM T3; Potency, µM (titrated, usually from 106 µM), for inactives: top-dose activity change, negative = inhibition, most hits filed as inhibitors; actives 0.065% (n = 280,000);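 note: plate controls were bound peptide for no effect and peptide without receptor for full effect; nearly all actives have a fitted effect of over 50% in size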
Target sequence (P10828 whole entry, looked up): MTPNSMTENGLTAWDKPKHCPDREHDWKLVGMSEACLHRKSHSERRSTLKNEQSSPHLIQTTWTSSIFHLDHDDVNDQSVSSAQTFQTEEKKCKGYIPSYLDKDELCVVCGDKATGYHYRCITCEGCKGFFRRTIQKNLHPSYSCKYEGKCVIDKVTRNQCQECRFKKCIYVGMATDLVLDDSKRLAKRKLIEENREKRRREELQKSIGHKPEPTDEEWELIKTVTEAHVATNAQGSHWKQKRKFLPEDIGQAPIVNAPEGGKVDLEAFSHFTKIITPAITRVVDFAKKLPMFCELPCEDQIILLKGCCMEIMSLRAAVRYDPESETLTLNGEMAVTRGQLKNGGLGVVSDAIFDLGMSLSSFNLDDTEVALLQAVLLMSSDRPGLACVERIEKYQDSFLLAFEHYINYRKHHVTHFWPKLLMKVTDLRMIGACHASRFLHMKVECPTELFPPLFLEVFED
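Decrease in fluorescence polarization of 20 nM Texas Red SRC2 coactivator peptide flagged inhibition of its binding to 0.6 uM TRb LBD; 1 uM T3 included, incubation 5 hr, ex 555/em 632 nm.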
GAA inh – blocks human lysosomal alpha-glucosidase; purified human GAA, 4-MU-alpha-glucoside fluorescence; Potency, µM (highest dose often 76.9 µM), for inactives: top-dose activity change, negative = inhibition, most hits filed as inhibitors; actives 0.005% (n = 200,000); AID 1466;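 note: plate controls were uninhibited enzyme wells for no effect and no-enzyme background for full effect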
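Human alpha-glucosidase, 4 nM, pre-mixed with test compounds before 400 uM 4-methylumbelliferyl substrate; 20 min room temperature at pH 5.0. Fluorescence read after pH 10 stop; AC50 values from Hill-equation fits.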
RECQ1 helicase – blocks DNA unwinding by human RECQ1; Potency, µM (series often up to 57.3 µM), without a hit: top-dose activity, negative = inhibition, hits mostly inhibitors; RECQ1 DNA unwinding, red fluorescence kinetic read; actives 0.54% (n = 240,000); AID 2549;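 note: plate controls were vehicle for no effect and no enzyme for full effect; nearly all actives have a fitted effect of over 30% in size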
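RECQ1T1 50 nM; forked duplex (20 bp + 30-nt ss tails) 200 nM, ATP 2 mM final; pH 8.0, 2 mM MgCl2, 2.5 ug/ml poly(dI-dC); 15 min compound preincubation; discontinuous kinetic read over 2 h at RT.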
TexasRed fluor – Texas Red fluorescence interference in TRb-SRC2 counter-screen; TRb/SRC2 Texas Red total fluorescence interference; Potency, µM (titrated, usually from 106 µM), for the others: at the highest dose fluorescence change, negative = quenching; actives 0.29% (n = 280,000); active = well fitted curve in either direction with a large enough effect; inconclusive = small, poorly fitted or top-dose-only effect
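Human TRβ ligand-binding domain (0.6 uM) and Texas Red SRC2 peptide (20 nM) in Tris buffer with 1 uM T3 and 5% DMSO were incubated with pinned compound for 5 hr at ambient temperature. Total fluorescence was computed as S + 2P (555/632 nm).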
aGlu spleen mod – inhibitors or activators of human alpha-glucosidase in spleen homogenate | Potency, µM (doses to about 79.9 µM), without a hit: at the top dose activity change, negative = inhibition, hits mostly inhibitors | actives 0.006% (n = 240,000) | P10253 | human spleen homogenate, 4-MU-alpha-glucoside fluorescence;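 note: 0% = enzyme with vehicle and -100% = no enzyme basal signal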
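Enzyme source: human spleen homogenate, 1 ug/well. Buffer 50 mM citric acid/K phosphate pH 5.0, 0.01% Tween-20. 4-MU-alpha-glucoside 1 mM; 37 C x 40 min; NaOH/glycine stop; fluorescence.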
RGS12 GoLoco inh – blocks human Gai1 binding to RGS12 GoLoco peptide, red readout. P63096. Gai1:RGS12 GoLoco peptide FP, rhodamine, 10 min. Potency, µM (titrated, usually from 61.6 µM), for inactives: at the highest dose activity, negative = inhibition, most hits filed as inhibitors. actives 0.44% (n = 230,000). AID 880; active = well fitted inhibition curve with a large enough effect, not every such curve was filed as active; inactive = no such curve, though single readings can be large or run the other way; note: nearly all actives have a fitted effect of over 30% in size; many of its hits are not listed in these tables
Target sequence (P63096 whole entry, looked up): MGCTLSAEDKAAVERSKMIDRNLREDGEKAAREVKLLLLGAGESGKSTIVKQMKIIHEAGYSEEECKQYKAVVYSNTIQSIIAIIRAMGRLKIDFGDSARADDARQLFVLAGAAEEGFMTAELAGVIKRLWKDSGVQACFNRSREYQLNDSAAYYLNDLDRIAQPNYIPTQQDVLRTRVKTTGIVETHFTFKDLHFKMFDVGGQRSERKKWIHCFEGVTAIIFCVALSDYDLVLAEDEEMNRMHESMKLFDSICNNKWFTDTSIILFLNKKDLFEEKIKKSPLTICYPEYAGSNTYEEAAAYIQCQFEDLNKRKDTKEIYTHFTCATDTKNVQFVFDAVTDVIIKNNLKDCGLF
* = called active by the depositor; i = inactive; ? = inconclusive; · = no result given; & = joins results of further samples; ! = repeats disagree; [ ] = remark or other dose. Unless noted, calls come from the whole dose curve; as a rule, active = well fitted curve in the direction sought with a large enough effect; inconclusive = small, poorly fitted or top-dose-only effect, or another doubt; inactive = no such curve, though single readings can be large; an effect the other way counts as inactive or inconclusive. Unless noted, % is set by controls: 0 for no effect and ±100 for the full control effect; potency is the fitted concentration of half-maximal effect.

Preview, nine compounds:
[1] CN1C(=O)CS(=O)c2ccc(C(=O)NC3CC3)cc21 (stereo not drawn)
[2] Cc1ccc2cc(C#N)c(SCC(=O)N3CCCc4ccccc43)nc2c1
[3] N=c1c(S(=O)(=O)c2ccccc2)cc2c(=O)n3ccccc3nc2n1Cc1ccco1
[4] Cc1nnc(SCC(=O)NCc2ccco2)[nH]c1=O
[5] N#C[C@]1(S(=O)(=O)c2ccccc2)C[C@@H]2ON=C(c3cccc(Br)c3)[C@@H]2C1
[6] CSc1oc(-c2ccco2)nc1S(=O)(=O)c1ccc(F)cc1
[7] Cc1ccc(C(C(=O)NC(C)(C)C)N(Cc2cccnc2)C(=O)C(=O)NC2CCCCC2)o1 (stereo not drawn)
[8] COc1ccc(CNC(=O)CCSc2nc(-c3ccc4c(c3)OCO4)cc(C(F)(F)F)n2)cc1

Screen / compound no.	1	2	3	4	5	6	7	8
GAA glycogen mod	5.3%	6.0%	2.2%	10.5%	12.4%[76.3 µM]	3.2%	5.9%	-3.0%
TRb-SRC2 inh	-3.0%	0.2%	-5.4%	-25.1%	·	2.6%	-8.9%	-3.8%
aGlu spleen mod	-2.3%	12.0%	6.3%	-2.8%	·	-6.0%	·	-4.0%
RGS12 GoLoco inh	12.5%	5.9%	36.8%[activator]	-11.0%	·	16.4%	-53.7%	-16.2%
TexasRed fluor	1.2%	-1.4%	-8.8%	2.0%	·	-4.6%	-1.0%	-5.2%
GAA inh	1.8%[15.4 µM]	-1.9%	5.3%	-4.0%	·	1.8%	-5.9%	6.3%
RECQ1 helicase	-3.9%	-6.6%	-18.7%	-17.6%	·	i	19.0%	-0.6%

[9] Cc1c(C)c2ccc(OC(C)C(=O)N3C[C@H]4C[C@@H](C3)c3cccc(=O)n3C4)c(C)c2oc1=O (stereo partly drawn)

Screen / compound no.	9
GAA glycogen mod	0.7%[76.3 µM]
TRb-SRC2 inh	·
aGlu spleen mod	·
RGS12 GoLoco inh	·
TexasRed fluor	·
GAA inh	·
RECQ1 helicase	·

The whole of this part (from the top)
[1] CN1C(=O)CS(=O)c2ccc(C(=O)NC3CC3)cc21 (stereo not drawn)
[2] Cc1ccc2cc(C#N)c(SCC(=O)N3CCCc4ccccc43)nc2c1
[3] N=c1c(S(=O)(=O)c2ccccc2)cc2c(=O)n3ccccc3nc2n1Cc1ccco1
[4] Cc1nnc(SCC(=O)NCc2ccco2)[nH]c1=O
[5] N#C[C@]1(S(=O)(=O)c2ccccc2)C[C@@H]2ON=C(c3cccc(Br)c3)[C@@H]2C1
[6] CSc1oc(-c2ccco2)nc1S(=O)(=O)c1ccc(F)cc1

Screen / compound no.	1	2	3	4	5	6
GAA glycogen mod	5.3%	6.0%	2.2%	10.5%	12.4%[76.3 µM]	3.2%
TRb-SRC2 inh	-3.0%	0.2%	-5.4%	-25.1%	·	2.6%
aGlu spleen mod	-2.3%	12.0%	6.3%	-2.8%	·	-6.0%
RGS12 GoLoco inh	12.5%	5.9%	36.8%[activator]	-11.0%	·	16.4%
TexasRed fluor	1.2%	-1.4%	-8.8%	2.0%	·	-4.6%
GAA inh	1.8%[15.4 µM]	-1.9%	5.3%	-4.0%	·	1.8%
RECQ1 helicase	-3.9%	-6.6%	-18.7%	-17.6%	·	i

Record cards, from the list above. Screens in order: GAA glycogen mod | TRb-SRC2 inh | aGlu spleen mod | RGS12 GoLoco inh | TexasRed fluor | GAA inh | RECQ1 helicase
Listed for N#C[C@]1(S(=O)(=O)c2ccccc2)C[C@@H]2ON=C(c3cccc(Br)c3)[C@@H]2C1 → 12.4%[76.3 µM] | · | · | · | · | · | ·
Listed for N=c1c(S(=O)(=O)c2ccccc2)cc2c(=O)n3ccccc3nc2n1Cc1ccco1 → 2.2% | -5.4% | 6.3% | 36.8%[activator] | -8.8% | 5.3% | -18.7%

The list goes on.
[7] Cc1ccc(C(C(=O)NC(C)(C)C)N(Cc2cccnc2)C(=O)C(=O)NC2CCCCC2)o1 (stereo not drawn)
[8] COc1ccc(CNC(=O)CCSc2nc(-c3ccc4c(c3)OCO4)cc(C(F)(F)F)n2)cc1
[9] Cc1c(C)c2ccc(OC(C)C(=O)N3C[C@H]4C[C@@H](C3)c3cccc(=O)n3C4)c(C)c2oc1=O (stereo partly drawn)
[10] CCOC(=O)CSc1cc(C)nc(NC(C)=O)n1
[11] Cc1ccc(/C=N/n2c(-c3cccc(Cl)c3)n[nH]c2=S)o1
[12] CC1(C)C(=O)Nc2ccccc2N1C(=O)COc1ccc(S(=O)(=O)N2CCOCC2)cc1Cl

Screen / compound no.	7	8	9	10	11	12
GAA glycogen mod	5.9%	-3.0%	0.7%[76.3 µM]	-18.9%	-11.4%	-16.3%
TRb-SRC2 inh	-8.9%	-3.8%	·	-4.9%	6.2%	-1.8%
aGlu spleen mod	·	-4.0%	·	-3.4%	-3.1%	-19.1%
RGS12 GoLoco inh	-53.7%	-16.2%	·	2.4%	6.1%	2.2%
TexasRed fluor	-1.0%	-5.2%	·	-6.1%	-4.4%	-6.2%
GAA inh	-5.9%	6.3%	·	-7.0%	·	-11.2%
RECQ1 helicase	19.0%	-0.6%	·	-1.5%	-7.2%	-12.4%

[13] NC[C@@H](O)c1ccc(O)c(O)c1
[14] Cc1cc(C)c2c(N)c(C(=O)NC3CC3)sc2n1
[15] COc1cccc(CNC(=O)C2=C(C)C(=O)OC23CCC(C)CC3)c1 (stereo not drawn)
[16] O=C(Nc1ccccc1)C1=C(O)CC(c2ccco2)CC1=Nc1ccccc1 (stereo not drawn)
[17] O=C(c1ccccc1)C(O)c1ccccc1 (stereo not drawn)
[18] O=C(Cn1cnc2cc([N+](=O)[O-])ccc2c1=O)NC1CCS(=O)(=O)C1 (stereo not drawn)

Screen / compound no.	13	14	15	16	17	18
GAA glycogen mod	·	3.1%	-1.4%	-5.8%	·	7.5%
TRb-SRC2 inh	-3.2%&-8.5%	-4.3%	-7.0%	4.3%	3.2%[201 µM]	-8.6%
aGlu spleen mod	5.1%&0.9%	-2.9%	-2.8%	-11.2%	-0.7%	-10.1%
RGS12 GoLoco inh	-0.4%	7.3%	1.3%	13.7%	3.3%&-9.4%	-10.2%
TexasRed fluor	?	-1.2%	0.0%	-2.7%	0.1%[201 µM]	-2.1%
GAA inh	·	8.3%	-11.2%	5.4%	·	-6.1%
RECQ1 helicase	14.1µM*!	-7.9%	i	-5.1%	-2.2%	-4.0%

[19] COc1ccccc1-c1ccc(SCC(=O)NCc2ccc3c(c2)OCO3)nn1
[20] CCOc1ccccc1N1CCN(Cc2cn[nH]c2-c2ccc(F)cc2)CC1
[21] Cc1csc(NC(=O)c2cc(-c3ccco3)nc3ccccc23)n1
[22] COC(=O)/C=C1/S/C(=N/NC(=O)c2ccccc2)NC1=O
[23] Cc1cc(C(=O)NNc2ccc(Cl)cc2)no1
[24] Cc1cc(C)nc(SCC(=O)OCC(=O)Nc2nc3ccccc3s2)n1

Screen / compound no.	19	20	21	22	23	24
GAA glycogen mod	-7.5%	1.9%	-2.7%	6.5%	?	2.5%
TRb-SRC2 inh	-12.2%	6.7%	-20.6%[53 µM]	·	-3.2%	-2.5%
aGlu spleen mod	·	-7.3%	1.5%	-3.7%	3.5%	2.2%
RGS12 GoLoco inh	-36.0%	6.3%	35.2%[activator]	0.4%	-2.0%	-5.7%
TexasRed fluor	-2.5%	1.4%	7.08µM*[quencher]	·	-0.8%	12.4%
GAA inh	-3.8%	-4.0%[15.4 µM]	1.7%	?	-8.7%	-1.0%
RECQ1 helicase	8.1%	i	-11.5%	-9.5%	i	3.6%

A portion of the library (hit frequency here may not be typical).
